# From PubChem BioAssay
# TRPML1 blocker = qHTS for Inhibitors of the Human Mucolipin Transient Receptor Potential 1 (TRPML1) | Mucolipin-1 (Homo sapiens), Q9GZU1 | TRPML1-inducible cells, Ca2+ dye fluorescence, FDSS; hits give low values; inhibition of EC80 agonist-evoked calcium signal | activity change, negative = inhibition, % (test concentration not listed) | 390,000 tested, 0.02% active; in the data active means activity change below about -50%; inconclusive means about -30% to -50%; inactive means above about -30%;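 further: stimulus is agonist 54-4 at its EC80 concentration; on the % scale 0 is the no-effect control and ±100 the full control effect; compound concentration not given in the record; the text of the record puts the active cut at -80%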
# Target sequence (Q9GZU1 whole entry, looked up): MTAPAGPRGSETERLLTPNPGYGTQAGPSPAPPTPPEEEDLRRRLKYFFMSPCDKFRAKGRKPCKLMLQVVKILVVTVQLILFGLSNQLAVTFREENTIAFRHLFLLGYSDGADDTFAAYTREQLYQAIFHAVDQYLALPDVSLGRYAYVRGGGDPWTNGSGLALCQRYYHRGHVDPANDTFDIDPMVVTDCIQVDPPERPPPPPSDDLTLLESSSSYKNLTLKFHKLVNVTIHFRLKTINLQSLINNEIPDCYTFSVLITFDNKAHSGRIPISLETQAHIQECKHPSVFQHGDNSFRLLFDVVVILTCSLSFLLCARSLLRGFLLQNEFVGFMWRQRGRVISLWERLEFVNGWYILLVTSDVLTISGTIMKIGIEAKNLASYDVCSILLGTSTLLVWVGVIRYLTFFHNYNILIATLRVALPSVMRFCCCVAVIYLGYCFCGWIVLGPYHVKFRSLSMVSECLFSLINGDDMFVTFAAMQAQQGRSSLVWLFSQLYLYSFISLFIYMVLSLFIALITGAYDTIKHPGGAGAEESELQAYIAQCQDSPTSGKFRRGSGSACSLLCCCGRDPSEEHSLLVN
#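 TRPML1-DL cells, Tet-induced overnight (~16 h, 37 °C) at 1,500 cells/well, were loaded with Ca8 no-wash dye plus quencher for 45-90 min at room temperature. Compounds were pinned during FDSS kinetic reading; agonist 54-4 at EC80 (4 uM final) then added.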
# D2 potentiator = Beta-Arrestin HTS for Positive Allosteric Modulators of the Human D2 Dopamine Receptor: Potentiators | DiscoveRx D2 beta-arrestin cells, luminescence, 90 min; 100% = 57 uM dopamine signal | potentiation, % (no concentration beside the values) | 360,000 tested, 0.23% active; active = potentiation of 50% or more; inconclusive = 30% to 50%; inactive = 30% or less;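 further: compound concentration not given in the record; tested on top of an EC20 dose of dopamine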
# Target sequence (P14416 whole entry, looked up): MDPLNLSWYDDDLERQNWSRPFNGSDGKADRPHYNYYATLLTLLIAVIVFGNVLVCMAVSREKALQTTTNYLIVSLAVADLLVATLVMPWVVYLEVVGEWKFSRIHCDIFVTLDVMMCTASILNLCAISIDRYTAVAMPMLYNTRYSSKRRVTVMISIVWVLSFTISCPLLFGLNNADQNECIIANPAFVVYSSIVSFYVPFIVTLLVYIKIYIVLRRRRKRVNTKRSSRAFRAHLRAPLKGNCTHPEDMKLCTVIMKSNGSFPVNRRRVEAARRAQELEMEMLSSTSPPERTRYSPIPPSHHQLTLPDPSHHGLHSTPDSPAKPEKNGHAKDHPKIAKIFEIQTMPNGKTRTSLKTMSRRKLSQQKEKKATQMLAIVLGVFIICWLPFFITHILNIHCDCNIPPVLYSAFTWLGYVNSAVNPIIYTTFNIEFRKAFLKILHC
#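 PathHunter beta-arrestin assay in DiscoveRx D2 cells. Compounds were added with an EC20 of dopamine (50 nM final) for 90 min at 37 deg C. Luminescence was read 1 h after detection reagent, with 57 uM dopamine as the EC100 control.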
# D2 ag = Beta-Arrestin HTS for Positive Allosteric Modulators of the Human D2 Dopamine Receptor: Agonists | D(2) dopamine receptor (Homo sapiens), P14416 | DiscoveRx PathHunter D2 beta-arrestin, luminescence, 90 min; 100% = 57 uM dopamine signal | activation, % (test concentration not listed) | 360,000 tested, 0.084% active; in the data active = activation above about 40%; inconclusive = about 15% to 40%; inactive = below about 15%; further: compound concentration not given in the record; the text of the record calls up to 30% inactive
#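 DiscoveRx PathHunter D2 beta-arrestin cells (2,100/well) attached overnight, then compound-stimulated 90 min at 37 C in HBSS/10 mM HEPES/0.1% Tween-20 buffer; beta-galactosidase complementation read by luminescence after 1 h at ambient temperature. Dopamine 57 uM final (EC100) as control.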
# PINK1 modulator = A Quantitative High throughput Screen to Identify Chemical Modulators of PINK1 Expression; 410,000 tested, 0.2% active; Potency, µM (top dose mostly 76.6 µM), for inactives: at the highest dose activation (PINK1 increase), usual class: activators; PINK1 immunofluorescence, high-content cytometry, 24 h; AID 624263, 2012; active = well fitted activation curve with a large enough effect; inconclusive = small, poorly fitted or top-dose-only effect; inactive = flat fitted curve, though single readings scatter; cell line not stated here;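 further: potency means the concentration at half of the fitted maximal effect; % of control where 0% means no effect; nearly all actives have a fitted effect of over 65% in size; a mitochondrial uncoupler was the plate control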
#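 Decision-based qHTS: stable cells, 24 h exposure to five compound concentrations, CCCP as control. Fixed cells stained for PINK1 plus nuclear, mitochondrial and cell markers, cytometer read.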
# TRPML1 ag = qHTS for Agonists of the Human Mucolipin Transient Receptor Potential 1 (TRPML1) | Mucolipin-1 (Homo sapiens), Q9GZU1 | TRPML1-expressing cells, Ca2+ dye fluorescence, FDSS; host cell line not named in the record; reference of the full effect not given here | activation, % (test concentration not listed) | 410,000 tested, 0.12% active | AID 624414, 2012; in the data active = activation above about 50%; inconclusive = about 30% to 50%; inactive = below about 30%; further: 0% is about no effect; the text of the record puts the active cut at 80%
#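 Cells: TRPML1-DL, 1X Tet inducer, ~16 h at 37 degrees C/5% CO2. Dye: ABD Ca8 no-wash + quencher, 45-90 min RT. Read: 10 s baseline, compound add, 110 s agonist phase; 54-4 EC80 (4uM final), 110 s antagonist phase.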
# Six1-Eya2 inh = qHTS Assay for Inhibitors of the Six1/Eya2 Interaction. AlphaScreen GST-Six1/His-Eya2 binding, biochemical; hits give low values; control for the full effect not named in the record. 360,000 tested, 0.56% active. activity change, % (test concentration not listed). Homeobox protein SIX1 (Homo sapiens) + Protein phosphatase EYA2 (Homo sapiens), …; in the data active = activity change below about -65%; inconclusive = about -30% to -65%; inactive = above about -30%; further: on the % scale 0 is the no-effect control and ±100 the full control effect; compound concentration not given in the record
#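 AlphaScreen with GST-Six1 and His-Eya2 (5X mix: 250 nM and 500 nM), glutathione donor and nickel acceptor beads; buffer 50 mM Tris pH 8.0, 300 mM NaCl, 1 mM TCEP; 1 h at 37 C in the dark.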
# Starred values were filed as active, the others as inactive; u = inconclusive; x = not tested or not shown; & = joins results of further samples; [ ] = remark or other dose. Compounds as they come; overall some 1% were active at least once.
# Start of the listing, in advance (four entries):
SMILES,TRPML1 blocker,D2 potentiator,D2 ag,PINK1 modulator,TRPML1 ag,Six1-Eya2 inh
O=C(CN1CCCCC1)N/N=C/c1ccc(Cl)cc1,x,-11,-1.2,-0.5%,x,5
Cc1cccc(-c2c(NC(=O)c3ccco3)oc3c(C)cccc3c2=O)c1,-9,2,0.0,1.4%,0.9,3
Cc1cccc(-c2nc3c(cnn3-c3ccccc3)c(=O)n2-c2cccc(Cl)c2)c1,21,x,x,1.4%,5.3,x
COc1ccc(N2CCN(C(=O)C3CCCN3S(=O)(=O)c3cccc4nsnc34)CC2)cc1 (stereo unspecified),-2,-5,0.7,-0.9%,0.7,-6

# The whole of this part (from the top)
SMILES,TRPML1 blocker,D2 potentiator,D2 ag,PINK1 modulator,TRPML1 ag,Six1-Eya2 inh
O=C(CN1CCCCC1)N/N=C/c1ccc(Cl)cc1,x,-11,-1.2,-0.5%,x,5
Cc1cccc(-c2c(NC(=O)c3ccco3)oc3c(C)cccc3c2=O)c1,-9,2,0.0,1.4%,0.9,3
Cc1cccc(-c2nc3c(cnn3-c3ccccc3)c(=O)n2-c2cccc(Cl)c2)c1,21,x,x,1.4%,5.3,x
COc1ccc(N2CCN(C(=O)C3CCCN3S(=O)(=O)c3cccc4nsnc34)CC2)cc1 (stereo unspecified),-2,-5,0.7,-0.9%,0.7,-6
Nc1nc(NCc2ccccc2)nc(NCc2ccccc2)c1[N+](=O)[O-],-9,7,-3.7,0.6%,0.1,7
O=C(NCCc1ccccc1)c1noc2c1CCc1ccccc1-2,-1,-3,-0.5,6.9%[38.3 µM],0.6,10
CCOc1ccccc1-c1nnc(SCc2ccc(Cl)cc2)o1,10,x,x,1.3%,5.3,x
CC1=C(C(=O)N2CCOCC2)CC(CC(=O)NCc2cccc3ccccc23)C(=O)N1Cc1ccc(C(C)(C)C)cc1 (stereo unspecified),27,-3,-4.9,-0.6%,1.9,-7
CCNC(=O)C1CCN(S(=O)(=O)c2ccc3c(c2)CCCN3C(C)=O)CC1,13,x,x,0.1%,-0.1,x
O=C(NCc1cccnc1)c1cc(-c2ccccc2)on1,-12,-12,0.6,-1.2%[38.3 µM],0.7,2
CC(=O)c1cccc(N(CC(=O)N2CCOCC2)S(C)(=O)=O)c1,5,-3,-2.7,x,-0.3,0
COc1ccc(N2C(=O)C(Cl)=C(N3CCN(Cc4ccccc4)CC3)C2=O)cc1,-8,1,-2.3,5.0%[38.3 µM],0.2,u
COc1ccc(C2=NN(C(=O)c3cccs3)C(O)(C(F)(F)F)C2)cc1 (stereo unspecified),8,-11,0.1,16%,1.5,2
CCOc1ccc(S(=O)(=O)NCCC(=O)NCCc2ccc(C(C)C)cc2)cc1,u,-4,-1.7,-0.1%,1.4,1
Cc1cc(C)c2[nH]c(=O)c(=O)[nH]c2c1,26,11,0.5,-1.0%,-0.1,-1
Cc1ccccc1Oc1cc(-n2ncc(Cl)c(Cl)c2=O)ncn1,-9,-41,-4.2,2.3%,0.4,-18
CCN(Cc1ccccc1)C(=O)Cn1cc2c(n1)CCCC2,10,-4,-5.1,0.0%,0.6,7
Cc1cccc(OCC(O)CN2C(C)(C)CC(O)CC2(C)C)c1 (stereo unspecified),18,-5,-4.0,1.3%,0.0,7
Cc1cccc(NS(=O)(=O)c2cc3c4c(c2)C(C)C(=O)N4CCC3)c1 (stereo unspecified),-2,0,1.1,1.3%,-0.6,1
COc1cc(NC(=O)c2cc(Cl)c(OC)c(Cl)c2)ccc1NC(=O)c1cc2ccccc2o1,6,x,x,1.6%,-0.2,x
CS(=O)(=O)NCCSc1cc(C(F)(F)F)nc2ccccc12,-3,-8,-3.7,-1.8%,0.2,-1
CCN(CC)S(=O)(=O)c1ccc2oc(Nc3ccc4c(c3)OCCO4)nc2c1,2,-17,0.6,11%,-0.2,-20
CN(C)[C@@H]1C(=O)C(C(N)=O)=C(O)[C@@]2(O)C(=O)C3=C(O)c4c(O)ccc(Cl)c4[C@@H](O)[C@H]3C[C@@H]12,-15,-11,-0.9,1.4%,1.0,-7
CCN(CC)C(=O)CSc1nnc(-c2ccccc2)n1-c1ccccc1,0,-5,-6.3,1.7%,-0.7,0
COc1cc(OC)c(NC(=O)Cc2ccc(OC)c(S(=O)(=O)N3CCOCC3)c2)cc1Cl,12,4,2.5,-3.0%,-0.4,0
# The list continues:
SMILES,TRPML1 blocker,D2 potentiator,D2 ag,PINK1 modulator,TRPML1 ag,Six1-Eya2 inh
Oc1c(Br)cc(CNC2CCCCC2)cc1Br,-6,-2,-2.2,3.4%,-0.7,2
O=C(N/N=C/c1ccc2c(c1)OCO2)c1ccn(Cc2ccc(Cl)cc2)n1,9,0,-2.0,13%,0.2,-5
CCCN(C(=O)COC(=O)c1[nH]c(C)c(C(=O)OC)c1C)c1c(N)n(Cc2ccccc2)c(=O)[nH]c1=O,-5,-6,-0.5,5.3%,-0.5,-5
COc1ccccc1N1CCN(CC(C)N(C(=O)C2CCCCC2)c2ccccn2)CC1 (stereo unspecified),0,-13,-1.3,-0.4%,0.1,2
COc1ccc(S(=O)(=O)NCC2CCCN(C(=O)C=C(C)C)C2)cc1 (stereo unspecified),7,-2,2.4,-0.8%,-0.8,-1
CCCCCCCCCCCCC(NC(C)=O)(C(=O)OCC)C(=O)OCC,-7,1,3.6,4.2%,0.5,19
O=C(CCC1CCCCC1)Nc1cccnc1,-19,-27,-2.0,1.2%,0.2,27
CCN(C(=O)COC(=O)c1cn(-c2ccccc2)nc1-c1ccccc1)C1CCS(=O)(=O)C1 (stereo unspecified),27,-6,-2.9,2.2%,2.4,-3
CC1Cc2ccccc2N1C(=O)CNc1ccccc1N1CCCCC1 (stereo unspecified),53,-20,5.3,11%,0.4,u
Cc1cc(C)n(-c2ccc(C(F)(F)F)cc2[N+](=O)[O-])n1,0,2,-1.6,1.0%,-0.7,-1
CN(C)S(=O)(=O)c1cccc(C(=O)OCC(=O)NCc2ccc3c(c2)OCO3)c1,16,-4,3.7,9.1%,1.7,5
CCCc1cc(NCCN(C)C)n2c(nc3ccccc32)c1C#N,34,-5,-0.1,-1.4%,-0.7,0
CCOc1ncccc1C(=O)OCC(=O)N1CCN(S(=O)(=O)c2ccccc2)CC1,10,-7,-0.1,-0.3%,0.9,-2
COc1ccc(C2C(C(=O)c3sc(C)nc3C)=C(O)C(=O)N2CCN2CCOCC2)cc1 (stereo unspecified),-3,-4,-1.9,-0.2%,-0.6,0
Cc1c(-c2nn(C)c(=O)c3ccccc23)oc2ccc(F)cc2c1=O,10,5,5.9,-0.2%,1.1,0
N#Cc1ccc(C(=O)Nc2cc(C3CC3)nn2-c2ccccc2)cc1,39,-7,-1.7,-1.1%,-0.9,-4
COc1cc(C(=O)NCc2ccccc2)cc(Br)c1OC,-8,-16,-0.1,1.6%,-1.0,5
Cc1cccc(CN(C)CCc2ccccn2)c1,-1,-10,0.5,-4.9%[38.3 µM],-0.3,3
CC(C(=O)OCC(=O)Nc1cccc(S(=O)(=O)N2CCOCC2)c1)N1C(=O)c2ccccc2C1=O (stereo unspecified),13,-5,3.4,2.0%,-0.8,-2
CC(C)(C)c1ccc(Oc2cccc(C3CC(=O)C(C4NCCc5ccccc54)C(=O)C3n3cncn3)c2)cc1 (stereo unspecified),-9,-17,-2.4,-0.8%,0.0,5
COc1cc(CN(C)Cc2ccccc2)cc(OC)c1O,27,-10,-0.5,-0.2%,-0.4,-8
CN(Cc1nc2ccccc2c(=O)[nH]1)C(=O)c1cc(C2CC2)nn1-c1ccccc1,8,-16,1.7,-0.6%,-0.3,1
O=C(O)CCCC(=O)Nc1ccc(Oc2ncnc3cc(Cl)ccc23)nc1,-9,-3,-4.4,0.9%,4.4,6
CN(C)c1ccc(-c2sc(Nc3ccccc3)n[n+]2-c2ccc(F)cc2)cc1,-5,7,0.4,-0.3%,-0.8,4
COc1ccccc1NCC(=O)c1ccc(C)c(C)c1,-4,-18,-15,-1.6%,1.3,-5
# Next structures follow:
SMILES,TRPML1 blocker,D2 potentiator,D2 ag,PINK1 modulator,TRPML1 ag,Six1-Eya2 inh
Cc1ccc(C(c2cc(Cl)c3cccnc3c2O)N2CCN(C)CC2)cc1 (stereo unspecified),21,-18,-19,4.1%,0.1,u
O=C(Cn1cc(C(=O)c2ccco2)c2ccccc21)Nc1ccccc1,32&10,-8,-2.1,-0.8%&-0.5%,1.0&-0.5,-3
Cc1c(NC(=S)NC(NC(=O)C(C)(C)C)C(Cl)(Cl)Cl)c(=O)n(-c2ccccc2)n1C (stereo unspecified),12,-1,-1.6,-1.4%,-0.6,1
Clc1cccc(Cn2ncc3ccccc32)c1,7,-3,-2.4,4.0%,-0.2,10
COc1cccc(C(=O)Nc2nc(-c3nnn(-c4cc(C)ccc4C)c3C)ns2)c1,-13,x,x,0.5%,14,x
CCOC(=O)CN[C@H]1CCC2C3CC=C4C[C@@H](O)CC[C@]4(C)C3CC[C@@]21C (stereo partly specified),7,-10,-1.9,2.9%,0.2,-3
COCCNC(=O)/C(C#N)=C/c1ccc(OCc2ccccc2)cc1,4,-5,-0.8,0.8%,1.3,2
O=C(c1cnc(-c2ccc(Cl)cc2)s1)c1ccc(Cl)cc1Cl,-12,-6,-0.2,11%,-0.6,2
Cc1occc1C(=O)NNS(=O)(=O)c1ccc(Cl)cc1,6,1,2.2,-2.5%,0.5,7
Fc1cccc(NC(=S)NCc2cccnc2)c1,37,-19,-1.5,-2.6%,0.3,10
COc1ccc2c(C)cc(N3CCN(c4ccc(F)cc4)CC3)nc2c1,8,-26,-2.4,x,0.0,-21
O=C1c2oc3ccccc3c(=O)c2C(c2ccccn2)N1Cc1ccccc1 (stereo unspecified),10,-19,-1.9,7.8%,-0.2,-3
CCOC(=O)Cn1c(=O)n(CC2CCCO2)c2nc(-c3ccc(CC)cc3)nc(C(N)=O)c21 (stereo unspecified),-13,x,x,0.1%,4.5,x
O=C(O)CSc1cc(NS(=O)(=O)c2cccc([N+](=O)[O-])c2)c2ccccc2c1O,x,-14,11,13%,x,-30
CCOC(=O)C1CCN(C(=O)CCNS(=O)(=O)c2ccc(C)cc2)CC1,4,-6,-0.3,-0.5%,-1.4,-7
O=C(CCCSc1nc2ccccc2c(=O)[nH]1)c1ccccc1,-1,-5,-2.7,0.5%,1.7,-3
Cc1nc(SCc2ccc(F)cc2)n[nH]1,-6,-3,-1.7,2.8%,-1.1,9
Cc1ccc(OCC(=O)NNC(=O)C2CCCO2)c(C)c1 (stereo unspecified),-6,-9,-3.8,0.3%,0.2,19
CC(C)(C)C(=O)C[n+]1ccccc1,18,-5,-3.1,0.5%,1.7,1
O=C(Nc1ccc(F)cc1)c1cccnc1N1CCOCC1,35,-4,0.3,-1.6%,0.2,12
